NPYLR7 agonist: agonists of mosquito NPYLR7 receptor, primary screen, cell-based, Aedes aegypti, calcium fluorescence, mosquito biting behavior; Aedes aegypti neuropeptide Y-like receptor 7 (NPYLR7); HEK293T NPYLR7/Galpha15, GCaMP6s calcium fluorescence; activation, % at 10 µM; 270,000 compounds, 0.15% hits; in the data active = activation above about 40%;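 also: 0% = vehicle and 100% = reference agonist at the receptor; some compounds past the cut are filed as inactive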
NPYLR7 agonist max-min: further read-out of NPYLR7 agonist, marked with its call; activation, %; measured here: Max-Min RFU normalised activation; some inactives read as strong as hits;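 span of the calcium signal over five minutes; 0% = vehicle and 100% = native peptide agonist; compound fluorescence can raise it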
Starred values were filed as active, the others as inactive; & = joins results of further samples.

smiles | NPYLR7 agonist | NPYLR7 agonist max-min
CC(C)c1ccc(C2C3=C(Nc4c2c(=O)n(C)c(=O)n4C)c2ccccc2C3=O)cc1 (stereo unspecified) | 5.5 | 23.7
COc1ccc(N2C(=O)CC(NCc3ccc(F)cc3)C2=O)cc1 (stereo unspecified) | 5.0 | 4.3
CC1CN(c2cc(Oc3ccc(F)cc3Cl)ncn2)CCN1C(=O)COCc1ccccc1 (stereo unspecified) | 12.2 | 14.6
COC(=O)[C@H]1C[C@@H](O)CCN1C(=O)c1c(-c2ccccc2)noc1C | 1.7 | 0.3
COc1cc(NC(=O)N2CCSC2c2cc(OC)ccc2OC)cc(OC)c1 (stereo unspecified) | -5.3 | 2.0
CN(Cc1ncc[nH]1)Cc1ccccc1CN1CCCC1 | 10.0 | 6.5
COc1ccc(N2CCN(Cc3cc(=O)c(OC)cn3CC(=O)Nc3ccccc3OC)CC2)cc1 | 0.4 | 0.2
CC1(Cc2ccc(C(F)(F)F)o2)C(=O)Nc2ccc(-c3ccc(F)c(Cl)c3)cc21 (stereo unspecified) | 0.7 | -0.9
CCCn1ncc(C(=O)N2CCCN(S(C)(=O)=O)CC2)c1C | 14.0 | 1.3
Fc1ccc(SCc2csc(Cc3ccc(Cl)c(Cl)c3)n2)cc1 | 3.4 | 1.0
COC(=O)[C@@H]1C[C@H](NC(=O)c2ccc(C)c(-n3cccc3)c2)CN1C | -0.8 | 3.9
CCOC(=O)c1ccccc1NC(=S)N1CC(=O)N2CCc3ccc(F)cc3C2C1 (stereo unspecified) | 27.7 | 27.0
COc1ccc(-c2c(NC(C)=O)n(C)c3ccccc3c2=O)cc1 | 2.4 | 3.5
O=C(Cn1nc2c(c1NC(=O)c1c[nH]c3ccccc13)CSC2)NCC1CCCO1 (stereo unspecified) | -0.9 | 0.9
COC(=O)c1cc(Cl)cc(Cl)c1NC(=O)CN1CCN(C(=O)C2CC2)CC1 | 3.8 | 2.7
Cc1[nH]ccc1C(=O)NC1CCN(c2c(F)cccc2F)C1=O (stereo unspecified) | -22.5 | -24.6
COc1ccc(C=CC(=O)NC2CCCC2)cc1OC | 8.4 | 12.0
COCCCN1CC2=C(C1=O)C(c1ccccc1)NC(=O)N2C (stereo unspecified) | -3.9 | 1.5
O=C(OC1C[C@H]2CC[C@@H](C1)[N+]21CCCC1)C(O)(c1ccccc1)c1ccccc1 (stereo partly specified) | 5.8 | -7.6
Cc1ccc(Cl)c(Oc2cc(N3CCN(C4CCCC4)CC3)ncn2)c1 | -12.8 | -4.4
C[C@@H]1[C@H]2C[C@@H](C[C@H]1NC(=O)C1CC13c1ccccc1-c1ccccc13)C2(C)C (stereo partly specified) | -5.9 | -11.2
CC1CN(Cc2ccc(F)cc2Cl)C(C)CO1 (stereo unspecified) | -1.1 | -5.8
CCCNC(=O)N1CCN(c2ccc3c(c2)OCO3)C(=O)C1C (stereo unspecified) | 2.8 | 12.5
Cc1cc(C)nc(NS(=O)(=O)c2ccc(NC(=O)c3cccc(Br)c3)cc2)n1 | 7.6 | 9.5
O=C(NCCOc1ccc2nnc(-c3cccc(F)c3)n2n1)c1ccco1 | -7.9 | -11.3
c1cncc(CNc2ccc3c(c2)CCC3)c1 | 2.6 | -0.4
COC(=O)c1ccc(CN2CCN(CC3CCCCC3)C(CCO)C2)cc1 (stereo unspecified) | 9.4&-5.6 | 2.3&-7.5
Cc1nnc(SCC(=O)Nc2ccc(Cl)cc2)c2c1cnn2-c1ccccc1 | -8.7 | -17.3
Cc1nc(C)c(CC(=O)N2CC[C@@]3(O)CCCC[C@H]3C2)c(=O)[nH]1 | -0.3 | -0.2
C=CCNC(=O)c1ccc(-c2cccc(-n3cccn3)c2)o1 | 27.1 | 17.2
CC1(C)OC2c3ccccc3OC3(C)CCC1CC23 (stereo unspecified) | -5.0 | -6.3
CN=c1scc(C)n1N=C(C)c1cccc(F)c1 | 0.7 | -1.7
O=C(CN1N=NC2C(=O)N(c3ccc(Br)cc3)C(=O)C21)Nc1ccc2c(c1)OCCO2 (stereo unspecified) | -4.5 | -5.9
COc1ccccc1-n1c(SCC(=O)Nc2cc(C)cc(C)c2)nc2c(c1=O)SCC2 | 1.8 | 2.1
O=C(c1cnn2c1NC(c1ccccc1)CC2C(F)(F)F)N1CCCCC1 (stereo unspecified) | 3.1 | -4.9
CCCCc1cn(CC2CCCN(C(=O)c3n[nH]c4c3CCCC4)C2)nn1 (stereo unspecified) | -2.6 | -8.6
COC(C)c1cccc(-c2nccc3occc23)c1 (stereo unspecified) | 2.7 | -1.4
O=C(O)CC1Cn2ncc(-c3ccc(Cl)cc3)c2NC1=O (stereo unspecified) | 2.1 | 38.4
COc1ccc(OCCCNc2c(F)cc(C#N)cc2F)cc1 | 6.6 | 4.8
Cc1c(NCc2cccnc2)cccc1C(=O)N1[C@@H]2CC[C@H]1CC(O)C2 (stereo partly specified) | 3.9 | 0.7
CCS(=O)(=O)c1c(Nc2ccc(F)c(Cl)c2)sc(C(=O)c2ccccc2)c1N | -4.3 | -7.7
Cc1ccccc1CNC(=O)CN1CCCC(N2CCCC2=O)C1 (stereo unspecified) | 2.8 | 1.8
C=CCNc1ccccc1C(=O)N1CC=C(n2c(=O)[nH]c3ccccc32)CC1 | 25.0 | 18.4
CCOc1ccc(NC(=O)Cn2c(-c3nnc(CC)o3)cc3ccccc32)cc1 | -3.5 | -3.4
O=S(=O)(NCC1COc2ccccc2O1)C1=Cc2ccccc2CC1 (stereo unspecified) | 5.4&10.4 | 11.6&12.4
COc1cccc(OC)c1OCc1nc(CN(C(=O)c2cccc(Br)c2)C2CC2)cs1 | -9.1 | 5.3
O=C(Nc1nc(-c2ccc3c(c2)CCC3)cs1)c1ccc(S(=O)(=O)N2CCCCC2)cc1 | -7.6 | -8.1
CCc1cnc(C)nc1NC1CC(=O)N(CC2CCCCC2)C1 (stereo unspecified) | 5.8 | 5.4
CC(C)(O)C#Cc1ccc(C(=O)NC[C@H]2C[C@H]3C=C[C@H]2C32CC2)o1 | 6.2 | 6.4
CCOC(=O)C1(CC2CCCCO2)CCN(C(=O)/C=C/c2cccs2)CC1 (stereo unspecified) | 15.3 | 10.8
Cc1cccc(C(=O)Nc2c3c(nn2-c2ccc(C)cc2C)CSC3)c1 | 0.4 | 5.0
Cc1cc(C(=O)NC(C)c2ccc(S(C)(=O)=O)cc2)c2cnn(C(C)C)c2n1 (stereo unspecified) | 5.5 | 1.2
O=C(NCC1CCS(=O)(=O)C1)C1CC(=O)N(CC2CC2)C1 (stereo unspecified) | 8.4 | 4.0
COc1ccc(-n2ccnc2C(C)Cc2ccc3c(c2)OCO3)cn1 (stereo unspecified) | 5.3 | 4.6
CNC(=O)[C@@H]1[C@@H](c2ccccc2)CN2CCN(Cc3ccccc3)C[C@H]12 | 0.2 | 5.3
CNC(=O)C1CCN(c2nc3ncn(CC(=O)Nc4ccc(F)cc4Cl)c(=O)c3s2)CC1 | 4.1 | 2.9
COc1ccc(S(=O)(=O)NC(=O)c2sccc2C)cc1NC(C)=O | 0.0 | -1.1
O=C(NCCC(=O)N1CCCc2cccc(F)c21)c1ccccc1 | -0.7 | 1.0
CC(C)c1ccc(-n2c(-c3cc(-c4ccccc4)nc4ccccc34)n[nH]c2=S)cc1 | -1.2 | -7.6
Cc1csc(C(NC(=O)N(C)Cc2ccccc2)C2CC2)n1 (stereo unspecified) | 1.7 | -0.8

(next part)
smiles | NPYLR7 agonist | NPYLR7 agonist max-min
O=C(c1ccc(Cl)nc1)N(Cc1cccc(Cl)c1)Cc1nc2cc(Cl)ccc2o1 | 0.0 | 14.3
O=C(CSc1nc2ccccc2[nH]1)C1CC1 | -0.5 | 5.2
C=CCSc1nnc2c(n1)OC=Nc1ccccc1-2 | 4.9 | 5.0
CC(C)c1nc(C(=O)N2CCCC(N3CCN(c4cccc(Cl)c4)CC3)C2)cs1 (stereo unspecified) | 2.1&-0.3 | -2.1&-0.6
CCC(CCNC(=O)C1CC(=O)N(c2ccccc2F)C1)N1CCCC1=O (stereo unspecified) | 6.5 | 3.0
CCOC(=O)c1c(NC(=O)c2cccnc2Cl)c(-c2ccc(OC)cc2)cn1Cc1ccccc1 | 15.3 | 5.4
OCCN(Cc1nc(-c2ccc3c(c2)OCO3)no1)Cc1cccs1 | -5.4 | -6.3
COc1ccc(CC(=O)Nc2ccncc2Cl)cc1 | 0.8 | -2.3
O=C(CN1CCOC1=O)NCCc1cccc(F)c1 | 2.6 | -0.1
COc1ccc(NC(=O)NCC(=O)NC2CCCCC2)c(Cl)c1 | 13.5 | 12.6
CCOC(=O)c1c(NC(=O)c2c(F)cccc2Cl)sc2c1Cc1ccccc1-2 | 4.9 | 3.5
CN1C(=O)N(CCC23CC4CC(CC(C4)C2)C3)C(=O)C12CCCCC2 | 1.5 | 0.1

Arranged by molar mass (rising): 12 of the compounds above.
smiles | NPYLR7 agonist | NPYLR7 agonist max-min
CN(Cc1ncc[nH]1)Cc1ccccc1CN1CCCC1 | 10.0 | 6.5
C=CCNC(=O)c1ccc(-c2cccc(-n3cccn3)c2)o1 | 27.1 | 17.2
Cc1ccccc1CNC(=O)CN1CCCC(N2CCCC2=O)C1 (stereo unspecified) | 2.8 | 1.8
COC(=O)[C@@H]1C[C@H](NC(=O)c2ccc(C)c(-n3cccc3)c2)CN1C | -0.8 | 3.9
OCCN(Cc1nc(-c2ccc3c(c2)OCO3)no1)Cc1cccs1 | -5.4 | -6.3
C=CCNc1ccccc1C(=O)N1CC=C(n2c(=O)[nH]c3ccccc32)CC1 | 25.0 | 18.4
O=C(OC1C[C@H]2CC[C@@H](C1)[N+]21CCCC1)C(O)(c1ccccc1)c1ccccc1 (stereo partly specified) | 5.8 | -7.6
CC(C)c1ccc(C2C3=C(Nc4c2c(=O)n(C)c(=O)n4C)c2ccccc2C3=O)cc1 (stereo unspecified) | 5.5 | 23.7
O=C(Cn1nc2c(c1NC(=O)c1c[nH]c3ccccc13)CSC2)NCC1CCCO1 (stereo unspecified) | -0.9 | 0.9
O=C(Nc1nc(-c2ccc3c(c2)CCC3)cs1)c1ccc(S(=O)(=O)N2CCCCC2)cc1 | -7.6 | -8.1
CNC(=O)C1CCN(c2nc3ncn(CC(=O)Nc4ccc(F)cc4Cl)c(=O)c3s2)CC1 | 4.1 | 2.9
COc1ccc(N2CCN(Cc3cc(=O)c(OC)cn3CC(=O)Nc3ccccc3OC)CC2)cc1 | 0.4 | 0.2

The list goes on:
smiles | NPYLR7 agonist | NPYLR7 agonist max-min
Cc1ccnc(N2C(=O)c3oc4ccc(F)cc4c(=O)c3C2c2ccccn2)c1 (stereo unspecified) | 0.8 | 22.5
O=C(O)CCn1c(SCc2cccc3ccccc23)nc2ccccc21 | 3.9 | -2.5
Cc1oc2ncn(C)c(=O)c2c1C(=O)n1ccccc1=NC(C)C | 5.3 | 2.6
CCCCCCc1c(O)nc(SCCN(C)C)[nH]c1=O | 10.9 | 18.3
CCOC(=O)C1CCCN(C(=O)C2COC3(CCN(C(=O)CC(C)(C)C)CC3)N2C(=O)c2ccccc2)C1 (stereo unspecified) | 8.4 | 20.4
O=C(Nc1ccc(C(F)(F)F)cc1)N1CCSC1c1ccccc1OCc1ccccc1 (stereo unspecified) | 12.9 | 20.1
C=CCC(O)(CC=C)c1ccc(CN(CCC)Cc2ccc(OC)c(OC)c2)o1 | 8.5 | 6.6
CCn1cc(C(CC(=O)NCc2ccncc2)c2cc(OC)cc(OC)c2)c2ccccc21 (stereo unspecified) | 4.3 | 12.8
CC1CN(c2ccc(/C=C(\C#N)c3nc4ccccc4n3C)o2)CC(C)O1 (stereo unspecified) | 3.4 | 8.8
CCCc1nnc(NC(=O)N(C)Cc2cc(Cl)cn2C)s1 | -20.8 | -21.7
COc1ccc(-c2csc(-n3[nH]c(-c4ccccc4)c(N=Nc4cccc(C)c4)c3=O)n2)cc1 | -7.4 | 3.7
Cc1ccc(CSc2nccn(-c3ccc4c(c3)OCCO4)c2=O)cc1 | -1.9 | -0.5
CCc1[nH]c2c(CNS(=O)(=O)c3cn(C)c(C)n3)cc(C)cc2c1C | 0.5 | -4.5
c1ccc(CO/N=C2\CC3CC2C2CCCC32)cc1 (stereo unspecified) | -0.9 | -6.1
CCC(=O)NC(Nc1ncc(C)s1)(C(F)(F)F)C(F)(F)F | 1.6 | 0.6
O=C(Cc1ccccc1F)NS(=O)(=O)C1CCCC1 | 4.6 | 3.0
CC(C)[C@H](O)C(=O)N[C@@H](C)C(=O)N[C@@H]1C(=O)N(C)CCc2ccccc21 | -1.6 | -10.9
CCOC(=O)C1CCCCN1C(=O)c1cn(Cc2cccc(C(F)(F)F)c2)nn1 (stereo unspecified) | 2.3 | -4.5
Cc1cc(C)n(CC(C)CNC(=O)N2CCc3sccc3C2)n1 (stereo unspecified) | 7.8 | 4.1
COc1ccc(C(=O)C2CCCN(c3cc(OC)nc(N)n3)C2)c(OC)c1 (stereo unspecified) | 2.9 | -27.3
CCc1cccc(CC)c1NC(=S)NC(CCC(=O)OC)C(=O)OC (stereo unspecified) | 2.4 | 5.8
Cn1c(=O)c2c(SCC(=O)Nc3cccc(C(F)(F)F)c3)nc(C3CC3)nc2n(C)c1=O | 8.6 | 12.3
Nc1ccc2[nH]c(=O)c(=O)[nH]c2c1 | 7.0 | 12.8
Cn1cnnc1Sc1ccc(-c2nccn2Cc2ccco2)o1 | 7.4 | -3.3
C=C(C)Cn1c(N2CCN(Cc3ccc(C)cc3)CC2)nc2c1c(=O)[nH]c(=O)n2C | 13.3 | 5.1
Cc1ccc(C(=O)N(C)C(C)C2CC2)s1 (stereo unspecified) | 7.9 | 6.4
CN1C(=O)C2C(=NC1c1ccccc1)NC(=S)NC2c1ccccc1 (stereo unspecified) | 1.5&0.5 | 1.1&3.0
CCOc1ccc(C2(O)C(C)[N+]3=C(CCC3)N2c2ccc(OC)cc2)cc1 (stereo unspecified) | 7.3 | 12.6
CCCC(=O)N1CCCC(C(=O)Nc2ccc3ccn(C)c3c2)C1 (stereo unspecified) | 3.6 | -2.0
O=C(COc1ccccc1Cl)NCc1ccco1 | -3.2 | -4.1
COC(=O)c1ccc(Cn2nc(-c3ccccc3)c3sc(C)nc3c2=O)cc1 | 9.4 | 7.9

Assay outcomes as filed in PubChem BioAssay.

These rows are one share of the data (hit frequency here may not be typical).
